Bioassay records from PubChem.
VDR inhibitor – inhibitors of human vitamin D receptor; P11473; AID 504847; 400,000 tested, 0.93% active; VDR-SRC2-3 peptide fluorescence polarization, 2 h; Potency, µM, inactives show max response, negative = inhibition, usual class: inhibitors; active = well fitted inhibition curve with a large enough effect; inconclusive = small, poorly fitted or top-dose-only effect, or another doubt; inactive = no such curve, though single readings can be large or run the other way; also: series mostly up to about 120 µM
Target sequence (P11473 whole entry, looked up): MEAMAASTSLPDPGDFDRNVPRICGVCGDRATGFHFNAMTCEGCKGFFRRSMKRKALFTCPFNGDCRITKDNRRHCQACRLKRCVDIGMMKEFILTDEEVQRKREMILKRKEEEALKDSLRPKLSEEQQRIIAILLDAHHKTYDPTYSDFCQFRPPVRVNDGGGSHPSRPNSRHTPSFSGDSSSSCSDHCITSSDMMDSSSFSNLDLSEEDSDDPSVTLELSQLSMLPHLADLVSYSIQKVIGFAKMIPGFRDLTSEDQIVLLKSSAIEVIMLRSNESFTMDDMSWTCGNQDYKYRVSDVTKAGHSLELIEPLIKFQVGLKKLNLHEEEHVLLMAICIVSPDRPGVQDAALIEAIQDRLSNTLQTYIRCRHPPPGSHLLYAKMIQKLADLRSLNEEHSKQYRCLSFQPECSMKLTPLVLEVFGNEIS
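The screen uses fluorescence polarization to detect compounds that interfere with recruitment of the SRC2-3 coactivator peptide to VDR; plates are read after 2 h at room temperature.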
* marks the source's active call; other numbers are inactive results; ? = inconclusive; & = joins results of further samples. % is scaled to controls: 0 for no effect and ±100 for the full control effect; potency is read from the fitted curve at half-maximal effect. An excerpt; the hit share may differ from the screen's.

SMILES	VDR inhibitor
O=C(NCc1ccc(OC(F)(F)F)cc1)C1CC2Cn3c(nc4ccccc43)C2N1Cc1ccccc1 (stereo not given)	-6%
COCCn1c(SCC(=O)Nc2ccc3c(c2)OCCO3)nnc1C(C)C	-17%
CC1(C)CC2c3cccc(C(=O)O)c3C(=O)N2c2c1ccc1ccccc21 (stereo not given)	12%
CC12CC(NC(=O)N1c1cccc(C(=O)N3CCN(c4ccccc4F)CC3)c1)c1ccccc1O2 (stereo not given)	17%
Cc1ccc(N2CC(NS(=O)(=O)c3cccs3)CC2=O)cc1C (stereo not given)	-3%
CCC(C)NC(=O)CSc1nnc(-c2ccc(C)cc2)c(-c2ccc(C)cc2)n1 (stereo not given)	8%
COc1cc2oc3cc(C#Cc4ccc(N)cc4)ccc3c(=O)c2cc1OC	-11%
CCOC(=O)c1ccc(NC(=S)NN)cc1	12%
O=C(O)c1ccc(-c2ccc(-c3ccccc3)cc2)o1	89µM*
COc1ccc(Nc2nc(N)nc(CSc3nccn3C)n2)cc1	-6%
COc1cccc(-c2nc(COc3ccc(Cl)cc3Cl)no2)c1	-17%
O=C(Nc1ccc(Cl)cc1)Nc1ccccc1CC[N+](=O)[O-]	?
O=C(Nc1ccccc1)C1=C[C@@H](C2CCCCC2)C[C@@H](OCc2ccc(CO)cc2)O1	?
COc1ccc(-n2c(SCC(N)=O)nnc2-c2ccc(NS(=O)(=O)c3ccc(C)cc3)cc2)cc1	-2%
CC(C)OC(=O)c1cccc(C(=O)O)n1	5%
Cc1coc2c1c(C)cc1oc(=O)c(CC(=O)N[C@@H](C)C(=O)O)c(C)c12	29%
Cn1nnnc1SCCNCc1ccc(Cl)cc1	-8%
COCCc1nn2c(=O)cc(COC(=O)C(c3ccccc3)c3ccccc3)nc2s1	-8%
CCCc1nnc(NC(=O)CCN2C(=O)c3ccccc3C2=O)s1	-19%
CC(C)N(C)C1CCN(S(=O)(=O)c2ccc(-c3ccc(=O)[nH]n3)s2)CC1	-3%
CCc1nc(N(CC)CC)c2oc3ccccc3c2n1	9%
CCc1ccc(CCC(=O)Nc2ccc(Cl)cc2)o1	-12%
COC(=O)c1ccc(NC(=O)CCc2c(C)nc3c(c(C)nn3C(C)(C)C)c2C)cc1	3%
CCOc1ccc(S(=O)(=O)Nc2ccc(S(=O)(=O)N3CCCC3)cc2)cc1	8%
CCN1C(=C(C#N)C#N)C=Cc2ccccc21	2%

(listing goes on)
SMILES	VDR inhibitor
CCCCn1c(-c2ccccc2)cnc1SCC(=O)NCCc1ccc(OC)c(OC)c1	-6%
COc1ccc2c(c1)OC(=O)CC2c1cc(OC)c(OC)c(OC)c1 (stereo not given)	12%&2%
Cc1nc2ccc(NC(=O)Cc3c(F)cccc3Cl)cc2s1	2%
COC(CN(C(=O)CCl)C(C(=O)NC1CCCCC1)c1ccc(C)cc1)OC (stereo not given)	-8%
O=C(CSc1ccc2nnc(-c3ccc(F)cc3)n2n1)NCC1CCCO1 (stereo not given)	1%
Cc1ccc(S(=O)(=O)NN2C(=O)c3ccccc3NC2c2ccccc2)cc1 (stereo not given)	1%
CCc1ccccc1NC(=S)N(CCOC)C(C)c1ccco1 (stereo not given)	13%
Cc1cccc(C)c1NC(=O)CSc1nnc(-c2ccco2)n1N	-15%
Cc1cccc(C)c1Nc1nnc(SCC(=O)NC2CCS(=O)(=O)C2)s1 (stereo not given)	-15%
CCCS(=O)(=O)c1nc(S(=O)(=O)c2ccc(C)cc2)c(NCCCN2CCCC2=O)s1	-5%
CCN(CC)C(=O)Cn1cc(S(=O)(=O)CC(=O)NCc2ccccc2)c2ccccc21	5%
Cc1ccc([N+](=O)[O-])cc1N=Nc1c(C)[nH]n(C(N)=S)c1=O	-19%
COC(=O)[C@@]1(C)CC[C@]2(C)CC[C@@]3(C)C(=CC(=O)C4[C@@]5(C)CC[C@H](O)C(C)(C)[C@@H]5CC[C@]43C)[C@H]2C1 (stereo not given in full)	16%
O=C(CCS(=O)(=O)c1ccc(Br)s1)NC1CCCC1	-7%
Cc1ccc(-c2nnc(N3CC(C)OC(C)C3)c3ccccc23)cc1 (stereo not given)	4%
NC(=O)CC(NC(=O)c1ccccc1)c1ccc(NCc2ccccc2)c([N+](=O)[O-])c1 (stereo not given)	-2%
CC(C)CC1NC(=O)N(CC(=O)Nc2ccc3c(c2)CCC3)C1=O (stereo not given)	-9%
O=C(NCc1ccco1)C1CCC(N2C(=O)C3C4CCC(C4)C3C2=O)CC1 (stereo not given)	9%
Cc1nc(C(=O)NC2CCCCC2)sc1C1(C)CC(c2cccc([N+](=O)[O-])c2)=NO1 (stereo not given)	-5%
Cc1cc(C(=O)N(C2CCCCC2)C2CCCCC2)no1	-1%
O=C1c2ccccc2-c2cccnc21	7%
O=S(=O)(c1ccc(F)cc1)N1CCCC(CO)C1 (stereo not given)	-9%
Cc1ccc(C=Nc2cccnc2N)cc1	-7%
COc1cc(CN2CCCC(C(=O)N3CCc4ccccc4C3)C2)cc(OC)c1OC (stereo not given)	11%
COc1cccc(C2NC(=O)CCC2[N+](=O)[O-])c1OC (stereo not given)	-13%

Following part.
SMILES	VDR inhibitor
CC1CCCC(C)N1CCCNC(=O)CN1C(=O)COc2ccc(S(=O)(=O)N3CCOCC3)cc21 (stereo not given)	0%
CCn1nc(C(=O)OCC(=O)c2ccc3c(c2)OCCO3)c2ccccc2c1=O	?
CN(C[C@H](Cc1ccccc1)N(C[C@@H](CC1CCCCC1)N(CCc1ccccc1)N=O)N=O)N=O	-3%
Cc1ccc(-c2nc(Nc3ccc(N4CCOCC4)cc3)c3ccccc3n2)cc1	11%
CCOc1ccc(S(=O)(=O)N2CCC(C(=O)N3CCOCC3)CC2)cc1C	16%
COc1nc(C)c2cc(C)oc2n1	-4%
Cc1cc2c(sc3ccccc32)c(C)n1	-6%
Cc1oc2c(cc(NS(=O)(=O)c3ccc(Cl)cc3)c3ccccc32)c1C(=O)O	-4%
Cc1ccc(C)c(C(=O)CN2C(=O)CCC2=O)c1	5%
Cc1ncoc1C(=O)Nc1ncc([N+](=O)[O-])s1	89µM*
COc1ccc(S(=O)(=O)Cc2ccc(C(=O)N3CCN(c4ccc(Cl)cc4)CC3)o2)cc1	-15%
COc1ccc(CNC(=O)c2cccc(NC(=O)c3ccccc3)c2)cc1	3%
CCn1c(SCC(=O)Nc2ccc(NC(C)=O)cc2)nc2c1c(=O)n(C)c(=O)n2C	-23%
O=C(O/N=C1/CCCc2occc21)c1ccc(F)cc1	?
CN(CCOc1ccc(-c2ccn(S(=O)(=O)c3c(Cl)cccc3Cl)n2)cc1)c1ccccn1	9%
CC(C)NC(=O)Cn1c(=O)nc(-c2ccccc2F)c2cc(Cl)ccc21	1%
COc1ccc(CCNC(=O)C2CCN(C(=O)c3ccc(F)cc3)CC2)cc1	6%
Cc1cc2c(c(=O)n1Cc1ccccn1)C(C(C)C)C(C#N)=C(N)O2 (stereo not given)	-17%
Cc1ccc(CNC(=O)c2ccc(NC(=O)CCS(=O)(=O)c3cccs3)cc2)cc1	-2%
CCn1cc(C(=O)N[C@@H](CCSC)C(=O)NCCCOC)c(=O)c2cc3c(cc21)OCO3	-12%
Cc1ccc(C(=O)N/C(=C\c2ccco2)C(=O)NCc2cccnc2)cc1	-4%
Clc1ccc(-n2nnnc2-c2ccno2)cc1	-10%
COc1ccc(C2CC(=O)Nc3c2c(C)nn3-c2nc(C)cc(C)n2)c(OC)c1OC (stereo not given)	-8%
Cn1c(SCC(=O)N2CCc3ccccc3C2)nnc1-c1cccs1	8%
Cc1ccc(-n2ccnc(NCCc3ccccc3)c2=O)cc1C	-3%

Ordered by the number under VDR inhibitor (highest first): some entries from above
SMILES	VDR inhibitor
COc1ccc(CCNC(=O)C2CCN(C(=O)c3ccc(F)cc3)CC2)cc1	6%
COc1ccc(CNC(=O)c2cccc(NC(=O)c3ccccc3)c2)cc1	3%
Cc1oc2c(cc(NS(=O)(=O)c3ccc(Cl)cc3)c3ccccc32)c1C(=O)O	-4%

Following part
SMILES	VDR inhibitor
Cc1ccc(NC(=S)N2CCN(S(=O)(=O)c3c(F)cccc3F)CC2)cc1C	-17%
COc1ccc(NC2=NCC(=O)N2c2ccccc2F)c(OC)c1	13%
Cc1ccc(OCC(=O)NCC2(N3CCOCC3)CCCCC2)cc1C	6%
CN(C)c1nc(Oc2ccc(N)cc2)nc(N(C)C)n1	16%
Cc1ccc(CN(C(=O)c2cc(=O)c3cc(Cl)c(C)cc3o2)C2CCS(=O)(=O)C2)cc1 (stereo not given)	-3%
CC(C)CNc1oc(-c2ccc(F)cc2)nc1C#N	0%
CCOC(=O)CNC(=O)C1(c2ccccc2)CCCC1	3%
COc1cc(/C=C(/NC(=O)c2ccccc2)C(=O)Nc2ccc(O)cc2)c([N+](=O)[O-])cc1OC	-12%
CC(=O)N1c2ccc(S(=O)(=O)NCCC(=O)Nc3ccc(F)cc3)cc2CC1C (stereo not given)	21%
COc1cc(-c2oc3cc(O)cc(O)c3c(=O)c2OC[C@@H]2OC(O[C@@H]3O[C@@H](C)[C@H](O)[C@@H](O)[C@H]3O)[C@@H](O)[C@H](O)[C@@H]2O)ccc1O (stereo not given in full)	7%
Cc1cccn2c(Nc3ccccc3)c(-c3ccccn3)nc12	-9%
COc1cccc(NC(=O)Cn2c(=O)n(CCc3ccccc3)c(=O)c3c4c(sc32)CN(C(C)=O)CC4)c1	-9%
CCCCCNC(=O)CCn1c(=O)[nH]c2ccccc2c1=O	10%
CC(C)C(C(=O)Nc1ccc2c(c1)OCCOCCOCCOCCO2)N1C(=O)c2ccccc2C1=O (stereo not given)	-13%
O=C(Nc1ccc(F)cc1)c1cccn1-c1nnc(N2CCCCC2)s1	17%
O=C(NCc1ccccc1Cl)c1ccc2c(=O)n(CCCN3CCCC3=O)c(=S)[nH]c2c1	-8%
CCCSc1ncc(Cl)c(C(=O)Nc2sc3c(c2C(=O)NCCOC)CCCC3)n1	12%
Cc1cc(OCC(O)CN(CCO)CCO)ccc1Cl (stereo not given)	9%
O=C(CSc1nc2c([nH]c3ccccc32)c(=O)n1-c1ccc(Cl)cc1)N1CCc2ccccc21	-7%
COc1ccc(OCC(=O)N2CCOCC2)cc1	-5%
CCOC(=O)/C(C#N)=C/Nc1ccsc1C(C)=O	-6%
COCCNC(=O)C(=O)Nc1ccc(Cl)cc1C	?
O=C(O)/C=C/C(=O)NNC(=O)c1ccc(Cl)cc1Cl	-2%
CCCC(=O)Nc1ccc2oc(-c3ccncc3)nc2c1	-10%
COc1ccc([C@H]2CC(=O)C=C(c3ccc(F)cc3OCc3ccccc3)C2)cc1OC	-8%

Reprinted at random: five records from the list, in no set order.
SMILES	VDR inhibitor
CC(C)C(C(=O)Nc1ccc2c(c1)OCCOCCOCCOCCO2)N1C(=O)c2ccccc2C1=O (stereo not given)	-13%
COc1ccc(NC2=NCC(=O)N2c2ccccc2F)c(OC)c1	13%
CN(C)c1nc(Oc2ccc(N)cc2)nc(N(C)C)n1	16%
CCOC(=O)/C(C#N)=C/Nc1ccsc1C(C)=O	-6%
Cc1ccc(CN(C(=O)c2cc(=O)c3cc(Cl)c(C)cc3o2)C2CCS(=O)(=O)C2)cc1 (stereo not given)	-3%

4 successive compounds from above, quoted:
SMILES	VDR inhibitor
COc1cc(/C=C(/NC(=O)c2ccccc2)C(=O)Nc2ccc(O)cc2)c([N+](=O)[O-])cc1OC	-12%
CC(=O)N1c2ccc(S(=O)(=O)NCCC(=O)Nc3ccc(F)cc3)cc2CC1C (stereo not given)	21%
COc1cc(-c2oc3cc(O)cc(O)c3c(=O)c2OC[C@@H]2OC(O[C@@H]3O[C@@H](C)[C@H](O)[C@@H](O)[C@H]3O)[C@@H](O)[C@H](O)[C@@H]2O)ccc1O (stereo not given in full)	7%
Cc1cccn2c(Nc3ccccc3)c(-c3ccccn3)nc12	-9%

Given in markdown: entries from further up
| SMILES | VDR inhibitor |
| --- | --- |
| CN(CCOc1ccc(-c2ccn(S(=O)(=O)c3c(Cl)cccc3Cl)n2)cc1)c1ccccn1 | 9% |
| CC(C)NC(=O)Cn1c(=O)nc(-c2ccccc2F)c2cc(Cl)ccc21 | 1% |
| COc1ccc(CCNC(=O)C2CCN(C(=O)c3ccc(F)cc3)CC2)cc1 | 6% |

(cont.)
SMILES	VDR inhibitor
CC(=O)CC(C)=NCCN=C(C)CC(C)=O	5%
Cc1ccc(NC(=S)NCCCN2CCOCC2)cc1	0%
CCCNC(=O)Cn1ncc2c3ccccc3n(CCC)c2c1=O	6%
CCOC(=O)C1=C(CC)OC(N)=C(C#N)C1c1ccc(NC(C)=O)cc1 (stereo not given)	1%
Cc1ccc2ncc(C(=O)NC(C)c3ccccc3)c(=O)n2c1 (stereo not given)	-9%
O=C(N/N=C/C=C\c1cccc([N+](=O)[O-])c1)c1ccccn1	6%
CC(=O)N1N=C(c2cccc(Cl)c2)OC1c1cccc([N+](=O)[O-])c1 (stereo not given)	0%
COc1ccc(N2CCN(CCCNC(=O)Nc3ccccc3)CC2)cc1	-20%&23%
O=C(CNC(=O)C1CCCCC1)Nc1ccc(Cl)cc1	-8%
CC(=O)c1ccc(NC(=O)NC2CC(=O)N(c3ccc4c(c3)OCCO4)C2)cc1 (stereo not given)	2%
NC(=O)c1ccc(/C=N/O)[n+](Cc2ccccc2)c1	19%
Cc1ccc(C2(C)NC(=O)N(CC(=O)Nc3nc(-c4ccccn4)cs3)C2=O)cc1 (stereo not given)	?
Cc1cc(/C=C(\C#N)C(=O)NCc2cccs2)c(C)n1-c1ccccc1F	-18%
CCCCSc1nnc(-c2ccc(OC)cc2)n1C	-13%
CCC1CCc2[nH]nc(C(=O)O)c2C1 (stereo not given)	3%
CC1CN(S(=O)(=O)c2cccc(C(=O)NCc3ccc4c(c3)OCO4)c2)CC(C)O1 (stereo not given)	4%
N#Cc1ccccc1Sc1ccccc1C(=O)OCC(N)=O	-11%
CCOC(=O)N1CCN(c2ncnc3c2cnn3-c2ccc(OC)cc2)CC1	-1%
